Screens deposited in PubChem by several laboratories.
Sa RN4220 lethal: kills Staphylococcus aureus RN4220 | S. aureus RN4220 growth, OD600, 16 h | inhibition, % (test concentration not listed) | 330,000 tested, 0.33% active | AID 1259311;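 active = z-score of -3 or lower and OD600 up to 0.18 on both plates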;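 note: plate controls were untreated cells for no effect and reference antibiotic for full effect; stock transfer was 100 nL into about 80 µL; one replicate is shown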
PrP 5UTR inh: inhibition of PrP 5' UTR reporter expression; 340,000 tested, 0.35% active; inhibition, % (test concentration not listed); AID 488862; cell-based PrP 5' UTR mRNA reporter, plate reader;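 active = every replicate at 50% or more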;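 note: 0 = median of the neutral control wells; tested in H4 reporter cells; numbers are from one replicate; inactives centre near -14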
Bead autofluor: compound fluorescence in toxin protease inhibitor counterscreen. compound autofluorescence counterscreen, microsphere flow cytometry; hits give high values. fluorescence intensity (concentration not given with the values). 360,000 tested, 3.1% active. AID 624483;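 active = at least 3 SD above the mean of all compounds, about 16000 in these data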;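 note: 100 nL of 1 mM stock went into each well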
Mtb hypoxia inh: Mtb hypoxia fluorescent reporter inhibition | fluorescence inhibition, % (no concentration beside the values) | 300,000 tested, 0.1% active | M. tuberculosis hypoxia-regulated fluorescent reporter, fluorescence;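 active = 35 to 45% if threefold the growth effect, above 45% if 1.5-fold the growth effect; inactive = the rest, general growth blockers included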;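 note: wells of about 50 µL received 100 nL stock; 0% = vehicle wells and 100% = reference inhibitor wells; whole bacteria with a GFP reporter of the hypoxia response; strong numbers were not always called active; many hits fall short of the cut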
BJeLR viability: BJeLR cell viability loss | 300,000 tested, 0.17% active | inhibition, % (concentration not given with the values) | AID 1554 | BJeLR (HRASV12) viability, CellTiter-Glo ATP luminescence, 48 h; reference of the scale not given here;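 active = replicate mean above 50%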;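 note: 50 nL library stock added to about 25 µL; numbers are from one replicate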
Sa ugtP lethal: kills S. aureus RN4220 lacking UgtP; S. aureus RN4220 ugtP deletion, OD600 growth, 16 h; some inactives read as strong as hits; growth inhibition, % (test concentration not listed); 330,000 tested, 0.54% active;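 active = z-score under -3 and OD600 up to 0.15 on both plates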;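 note: plate controls were untreated wells for no effect and antibiotic for full effect; wells of about 80 µL received 100 nL stock; the first replicate is given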
Mtb hypoxia inh growth: also measured in Mtb hypoxia inh; calls as there; growth inhibition, %; measured here: M. tuberculosis growth (absorbance);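 0% = vehicle and 100% = reference antibiotic; read after six days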
* marks the source's active call; other numbers are inactive results; . = no result given.

SMILES	Sa RN4220 lethal	PrP 5UTR inh	Bead autofluor	Mtb hypoxia inh	Mtb hypoxia inh growth	BJeLR viability	Sa ugtP lethal
Cc1cccc(C)c1OCC(O)CN(Cc1ccccc1O)C1CCCCC1 (stereo unspecified)	0.8	-12	4602	10	1	10	2
O=C(Nc1cccc(S(=O)(=O)N2CCCCC2)c1)c1ccccn1	6.8	-21	3307	8	5	-1	24
NC(=O)COC(=O)C1c2ccccc2Oc2ccccc21	0.7	.	3438	9	9	3	12
Cc1cc(C)cc(OCc2nc3ncc(Br)cc3[nH]2)c1	-2.2	6	6429	4	-6	25	-3
CCN(CC)C(=O)Oc1cc(=O)n2c3c(cccc13)CCC2	8.0	-24	7791	-3	-1	21	1
COc1ccc(S(=O)(=O)N2CCCOC2CNC(=O)C(=O)NCc2cccnc2)cc1 (stereo unspecified)	4.8	-12	5492	12	0	-4	-1
CCOC(=O)c1cc2occc2n1CC(=O)N1CCOCC1	4.6	-17	7416	3	-2	-4	7
CC1(C)CC(=O)C2=C(C1)N=C1c3ccccc3C(=O)C1C2c1ccc(Cl)cc1 (stereo unspecified)	0.7	-13	4003	.	.	2	-6
O=[N+]([O-])C(Cl)=CC(=C(N1CCCCC1)N1CCCCC1)[N+](=O)[O-]	23	.	.	17	18	.	1
CCN(CC)C(=O)COc1ccc(CC(=O)O)cc1OC	-2.8	-4	3607	.	.	3	1
Cc1ccc(/C(N)=N/OC(=O)CSc2ccccc2)cc1	7.2	-73	2188	1	3	2	13
COc1cc(C(=O)Nc2cccc(S(=O)(=O)N3CCCC3)c2)cc(OC)c1C	-2.0	-13	4710	4	5	-4	8
COc1ccc(C(=O)Nc2ccc(NC(=O)c3cccc(F)c3)cn2)cc1	-2.1	-6	3383	8	-1	-6	-8
CSc1ccc(S(=O)(=O)NCc2ccc(Cl)cc2)cc1	5.6	5	8692	8	8	-7	-7
COc1ccc(C(=O)[C@H]2[C@H]3C(=O)N(c4ccc(C)cc4)C(=O)[C@H]3C3C=CC=NN32)cc1 (stereo partly specified)	3.1	.	4267	0	5	0	5
Cc1ccc(OC(C)C(=O)N(Cc2cccs2)C2CCS(=O)(=O)C2)cc1C (stereo unspecified)	0.0	-15	3831	-2	-6	-5	-2
NNc1nc2ccccc2nc1C(F)(F)F	4.6	-27	4608	6	8	8	-5
O=C1NCC(=O)N(Cc2ccccc2)/C1=C/c1ccccc1	4.6	-28	4814	9	-4	3	12
O=C(CSc1nc2ccccc2o1)N1c2ccccc2Sc2ccc(C(F)(F)F)cc21	-1.9	-23	1967	8	8	1	19
CC(Cc1ccccc1Sc1ccccc1O)N(C)C (stereo unspecified)	-3.5	-7	2391	7	-5	-4	6
CN1CCN(c2ncnc3sc(-c4ccccc4)cc23)CC1	8.4	-25	4105	18	12	-3	-3
O=C(Cc1ccc(Cl)c(Cl)c1)OCC(=O)c1ccc[nH]1	0.1	-6	4013	-6	1	4	-1
NC(=O)c1ccc(NC(=O)CCCN2C(=O)c3ccccc3C2=O)cc1	0.0	-19	5793	3	9	3	0
CN(C)C(=O)C1CCC(=O)N1Cc1cccs1 (stereo unspecified)	-0.3	-19	4612	-8	5	.	-8
Cc1ccc(CCNC(=O)CN(C)S(=O)(=O)c2ccc3c(c2)n(C)c(=O)c(=O)n3C)cc1	12	-29	5712	2	9	-6	4
CC(=O)Nc1cccc(C(C)=NNC(=O)c2ccc3c(c2)OCO3)c1	2.2	.	.	2	1	.	1
Cc1cc(C)nc(NS(=O)(=O)c2ccc(N/C=C\C(=O)c3cccs3)cc2)n1	3.2	-5	4347	1	3	0	6
COc1ccccc1C=Nn1cnnc1	1.0	.	.	-2	-3	.	0
COc1cc(OC)cc(-c2c(C#Cc3ccsc3)c3cc(-c4ccc5cc[nH]c5c4)ccc3n2C)c1	-10	-2	4075	5	8	.	-13
CCCn1c(SCC(=O)NC2CCCCC2)nnc1-c1ccccn1	1.6	-20	4177	9	3	-3	3
COC(=O)CCSCC(=O)Nc1nnc(C)s1	-13	-7	6242	3	2	-8	-3
O=c1ccc2ccccc2n1Cc1cccc(F)c1	1.9	-13	4254	13	5	-21	2
CC1CCCCN1S(=O)(=O)c1ccc(C(=O)Nc2nnc(-c3ccco3)o2)cc1 (stereo unspecified)	36	-11	5650	-2	5	-2	20
CC(CCc1ccccc1)NC(=O)C(=O)NCc1ccccc1 (stereo unspecified)	1.7	-55	2010	2	0	2	3
CC(C)Oc1ccccc1C=NNC(=O)c1ccccc1Cl	2.4	.	.	-12	-9	.	-11
O=C(Nc1ccc(N2CCN(C(=O)c3ccc(Cl)cc3)CC2)cc1)c1cccnc1	-8.2	-15	2480	3	5	6	-4
COc1ccc(OC)c(S(=O)(=O)N(C)CC(=O)N2CCN(c3cccc(Cl)c3)CC2)c1	-1.0	-5	4611	.	.	7	-7
Cc1nc(Cl)sc1C(=O)Nc1cccc(Cl)c1C	5.9	-4	2626	14	6	-1	10
C=CCOC(=O)C1=C[C@H](c2coc3ccccc3c2=O)C[C@H](OCc2ccc(CO)cc2)O1	-12	-18	2407	8	8	11	-7
CC(=O)O[C@H]1C[C@@]2(O)[C@@H](OC(=O)c3ccccc3)C3[C@@](C)([C@@H](O)C[C@H]4OC[C@@]34OC(C)=O)[C@@H](O)[C@H](OC(C)=O)C(=C1C)C2(C)C (stereo partly specified)	4.1	-13	5744	.	.	3	8
O=C(NNC(=O)c1cnccc1C(F)(F)F)c1cccc(Cl)c1	6.7	-13	4707	1	12	2	-13
CCC(CO)Oc1cc(NC(=O)c2ccc(F)cc2)c2ncn(C(C)C)c2c1 (stereo unspecified)	4.0	3	4036	11	5	.	-8
Cc1occc1C(=O)N1CCC2(CCCN(Cc3ccc(F)c(F)c3)C2)C1 (stereo unspecified)	.	-23	6270	.	.	1	.
CC(=O)c1ccc2c(c1)OCCOCCOc1ccc(C(C)=O)cc1OCCOCCO2	5.1	-30	3545	19	5	-3	11
CCOCCCNC(=O)C1CCCN1S(=O)(=O)c1ccc(Cl)cc1 (stereo unspecified)	3.3	-4	10070	14	12	7	5
CN(c1ccccc1)c1ccc(/C=C(\CCC(=O)O)c2nc3ccccc3s2)cc1[N+](=O)[O-]	26	-9	2473	9	-9	-13	51
Cc1cc(C)cc(CN2CCC(Oc3ccc(C(=O)N4CCCC4)cc3)CC2)c1	-2.4	-14	6304	-5	6	2	-5
Cc1cccc(/C=N/NC(=O)c2ccc(NC(=O)c3ccc(Cl)cc3)cc2)n1	.	-21	3730	.	.	-6	.
CCOc1cc(C)c(C(C)C)cc1S(=O)(=O)N1CC(C)OC(C)C1 (stereo unspecified)	-6.0	-20	2766	.	.	13	-19
CCc1ccc(OC2=NS(=O)(=O)c3ccccc32)cc1	8.7	-4	3326	17	0	-6	4

Other entries follow:
SMILES	Sa RN4220 lethal	PrP 5UTR inh	Bead autofluor	Mtb hypoxia inh	Mtb hypoxia inh growth	BJeLR viability	Sa ugtP lethal
Cc1ccc(NCC(=O)N/N=C/c2cccc(Br)c2)cc1	.	-20	4051	.	.	-3	.
O=C(NN=Cc1cc2c(cc1Br)OCO2)C1COc2ccccc2O1 (stereo unspecified)	-4.5	.	.	13	0	.	0
Cc1cc(N(C)C)nc(SC(C)C)n1	0.4	-15	4068	.	.	-5	3
CCOC(=O)c1c(NC(C)=O)sc2c(OC)cccc12	7.2	-10	3563	6	4	0	-7
COc1ccc(C)cc1-n1nnnc1SCc1cc(=O)n2cc(C)ccc2n1	1.9	0	4388	.	.	-2	0
COc1cccc(C(=O)C2CCCN(Cc3ccc(OC)c(Cn4cncn4)c3)C2)c1 (stereo unspecified)	3.9	-6	4411	13	5	13	3
COc1c2ccoc2c(OC[C@@H](O)C(C)(C)OC)c2oc(=O)ccc12	.	-8	3386	.	.	-8	.
COc1ccc(NC(=O)CN2CCN(S(=O)(=O)N3CCCCCC3)CC2)cc1	2.8	-20	3689	7	2	-5	-2
CCOc1ccc(-c2cn[nH]c2N)cc1	4.2	-36	23738*	4	5	-3	36
Cc1cc2ccccn2c1C(=O)c1ccc(NN)c([N+](=O)[O-])c1	3.1	-13	4521	4	1	3	-3
Cc1noc(C)c1S(=O)(=O)N(Cc1ccccc1)C(C)C	5.0	.	.	16	-4	-7	3
Cn1ccc(C(=O)Nc2cccnc2Cl)n1	4.4	-18	5582	3	3	-8	6
CCc1nc(SCC(=O)c2cccs2)c2oc3ccccc3c2n1	29	-32	6406	20	8	-1	12
COCCNc1nnc(Cc2ccccc2)c(=O)[nH]1	3.1	.	3759	-6	-8	-4	11
O=C1COc2ccc(C(=O)COC(=O)Cc3ccccc3)cc2N1	1.5	-22	5748	1	-4	-11	6
COc1cc(CNCc2ccccn2)ccc1OCC(=O)NC1CCCCC1	2.1	4	2560	3	-3	-6	-7
CC#CC[N+](C)(CC#CC)CC(=O)c1ccccc1	-6.4	-18	4637	-11	3	2	-11
CCCCn1c(SCc2ccc(Cl)cc2)nc2c1c(=O)[nH]c(=O)n2C	-0.9	-11	3609	.	.	8	82
Cc1nn(CC(=O)NCCCc2ccccc2)c(C)c1[N+](=O)[O-]	10	-6	4433	-5	1	-2	3
COc1ccc(N2CCN(C(c3cc(OC)ccc3OC)c3nnnn3CC3CCCO3)CC2)cc1 (stereo unspecified)	1.3	-2	3266	.	.	3	11

The final five compounds of the part before open the next one.
SMILES	Sa RN4220 lethal	PrP 5UTR inh	Bead autofluor	Mtb hypoxia inh	Mtb hypoxia inh growth	BJeLR viability	Sa ugtP lethal
COc1cc(CNCc2ccccn2)ccc1OCC(=O)NC1CCCCC1	2.1	4	2560	3	-3	-6	-7
CC#CC[N+](C)(CC#CC)CC(=O)c1ccccc1	-6.4	-18	4637	-11	3	2	-11
CCCCn1c(SCc2ccc(Cl)cc2)nc2c1c(=O)[nH]c(=O)n2C	-0.9	-11	3609	.	.	8	82
Cc1nn(CC(=O)NCCCc2ccccc2)c(C)c1[N+](=O)[O-]	10	-6	4433	-5	1	-2	3
COc1ccc(N2CCN(C(c3cc(OC)ccc3OC)c3nnnn3CC3CCCO3)CC2)cc1 (stereo unspecified)	1.3	-2	3266	.	.	3	11
Cn1cnc2c(=O)sc3ccccc3c21	1.4	-20	3766	6	6	-2	5
Cc1ccc(C(=O)NNCC(=O)Nc2ccc(Cl)cc2F)cc1	8.4	-25	3219	13	3	.	11
CCc1cc(-c2n[nH]c(=S)n2CC(C)C)cs1	2.2	-18	2465	10	5	11	6
Cc1c(-n2c(SCC(=O)O)nnc2-c2ccccc2Br)c(=O)n(-c2ccccc2)n1C	0.2	-12	4950	14	5	-3	3
CCOC(=O)c1c(C)[nH]c(C(=O)Nc2cc(OCC)c(N3CCOCC3)cc2OCC)c1C	14	-13	3785	10	7	.	11
CCOc1ccc(C(C)(C)C)cc1S(=O)(=O)Nc1ccncc1	6.3	-30	4077	-6	2	7	5
O=C(COc1ccc(Br)cc1Cl)NNC(=O)c1ccccc1	6.5	-25	3873	5	12	.	5
N#C/C(=C/c1ccccc1OCc1ccc(F)cc1)c1ccc(C(=O)O)cc1	11	-17	3449	-1	11	-13	3
CC1(NC(=S)N(CCO)CCO)CCS(=O)(=O)C1 (stereo unspecified)	1.7	-28	2097	12	9	-1	14
COc1cccc(NC(=O)N2CCCC2C(=O)NC2CCCC2)c1 (stereo unspecified)	4.6	2	4531	-1	-9	-8	2
COc1ccc(C=NCC2OCCc3ccccc32)cc1OC (stereo unspecified)	2.3	-30	3029	-2	9	5	9
CCOc1ccc2[nH]c3c(NCCc4ccc(OC)c(OC)c4)ncnc3c2c1	-0.4	-6	6092	4	-2	-4	40
Cc1ccc(Cl)cc1N(CC(=O)NCc1ccc2c(c1)OCO2)S(C)(=O)=O	7.9	-9	4489	1	2	4	4
CCc1nn(CC(=O)N2CCN(c3cc(C)ccc3C)CC2)c(=O)c2cc3occc3n12	2.5	-22	4904	10	6	-4	5
CC(=O)N1C(=O)N(C(C)=O)C2C1N(C)C(=O)N2C(C)=O (stereo unspecified)	3.1	3	3098	6	2	4	5
CN=C1S/C(=C\c2ccc(O)c(OC)c2)C(=O)N1C	5.3	.	.	-2	1	-1	-2
O=C(/C=C/c1ccc(F)cc1)NCC1(c2ccccc2)CCOCC1	1.1	-17	2467	16	7	-5	5

No enrichment for hits; any-hit rate near 4%.
